Source: PubChem BioAssay (Broad Institute)
A1 apoptosis 2: compounds inhibiting A1, read as caspase activation; MEF A1-2A-BIM cells, caspase-Glo luminescence, 3 h; percent of clofoctol response, DMSO zero; caspase activation, % (no concentration beside the values); 24,000 tested, under 10 active; AID 2465; in the data active = caspase activation above about 5.9%;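 also: wells of about 30 µL received 50 nL stock; the first replicate is given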
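Material: A1-2A-BIM-expressing MEF cells. Buffer or medium: RPMI-1640 plus 10% FBS. Incubation: cells settled overnight, compound exposure 3 h at 37 °C, 5% CO2. Signal: Caspase-Glo 3/7 luminescence, 1 h at room temperature.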
Numbers without * were called inactive. Not all compounds are listed; rates above refer to the full screens.

SMILES | A1 apoptosis 2
C[C@H](CO)N1C[C@H](C)[C@H](CN(C)CC2CC2)Oc2ccc(NC(=O)c3ccncc3)cc2CC1=O | 1.5
C[C@@H]1CN([C@@H](C)CO)C(=O)c2cccc(NS(=O)(=O)c3ccccc3)c2O[C@@H]1CN(C)CC1CC1 | -0.3
C[C@H](CO)N1C[C@H](C)[C@H](CN(C)C(=O)Nc2ccc(F)cc2)OCCCC[C@H](C)Oc2ccc(NC(=O)Nc3ccc(F)cc3)cc2C1=O | 0.3
CC(C)NC(=O)N(C)C[C@@H]1Oc2ccc(NC(=O)C3CCCCC3)cc2C(=O)N([C@@H](C)CO)C[C@H]1C | -0.9
CNC[C@H]1OCCCC[C@@H](C)Oc2ccc(NS(=O)(=O)c3ccc(OC)cc3)cc2C(=O)N([C@H](C)CO)C[C@H]1C | -1.5
C[C@@H]1CCCCO[C@H](CN(C)Cc2ccc(C(=O)O)cc2)[C@@H](C)CN([C@H](C)CO)C(=O)c2cc(NC(=O)Nc3ccccc3)ccc2O1 | -0.5
C[C@H](CO)N1C[C@H](C)[C@H](CN(C)S(=O)(=O)c2ccccc2)Oc2ccc(NC(=O)NC3CCCCC3)cc2C1=O | -1.7
Cc1noc(C)c1S(=O)(=O)N(C)C[C@H]1Oc2c(NC(=O)c3ccc(-c4nccs4)cc3)cccc2C(=O)N([C@@H](C)CO)C[C@H]1C | -1.1
C[C@@H]1CN([C@@H](C)CO)C(=O)c2cc(NC(=O)Nc3ccccc3)ccc2O[C@@H](C)CCCCO[C@@H]1CN(C)C(=O)NC1CCCCC1 | 1.0
C[C@@H]1CN([C@H](C)CO)C(=O)Cc2cc(NC(=O)Nc3cccc4ccccc34)ccc2O[C@@H]1CN(C)S(=O)(=O)c1ccc(F)cc1 | 1.8
C[C@H]1CN([C@@H](C)CO)C(=O)c2cc(NC(=O)Nc3ccc4c(c3)OCO4)ccc2O[C@@H]1CN(C)Cc1ccc(C(F)(F)F)cc1 | -0.1
C[C@H](CO)N1C[C@H](C)[C@H](CN(C)C(=O)NC2CCCCC2)Oc2ccc(NC(=O)NC3CCCCC3)cc2C1=O | -1.7
C[C@@H]1CN([C@H](C)CO)C(=O)c2cc(NS(=O)(=O)c3ccccc3)ccc2O[C@H]1CN(C)C(=O)Nc1ccc2c(c1)OCO2 | 0.9
CC(C)NC(=O)N(C)C[C@@H]1Oc2c(NC(=O)Nc3ccc4c(c3)OCO4)cccc2C(=O)N([C@H](C)CO)C[C@H]1C | -1.3
C[C@H]1CN([C@@H](C)CO)C(=O)c2cccc(NS(C)(=O)=O)c2O[C@H]1CN(C)C(=O)Nc1ccccc1 | -1.0
C[C@H]1CN([C@@H](C)CO)C(=O)c2cccc(NC(=O)Nc3ccc(C(F)(F)F)cc3)c2O[C@@H]1CN(C)C(=O)Nc1cccc2ccccc12 | 1.3
C[C@H]1CN([C@@H](C)CO)C(=O)c2cccc(NS(=O)(=O)c3ccccc3)c2O[C@@H]1CN(C)C(=O)Nc1ccccc1 | 0.3
COc1ccc(CN(C)C[C@H]2Oc3c(NS(C)(=O)=O)cccc3C(=O)N([C@@H](C)CO)C[C@H]2C)cc1 | 0.4
C[C@H]1CN([C@@H](C)CO)C(=O)c2cccc(NC(=O)Nc3ccc(C(F)(F)F)cc3)c2O[C@H]1CN(C)S(=O)(=O)c1cn(C)cn1 | -0.7
C[C@H]1CN([C@@H](C)CO)C(=O)c2cc(NC(=O)Nc3ccc4c(c3)OCO4)ccc2O[C@H]1CN(C)S(C)(=O)=O | -0.2
C[C@@H]1CN([C@H](C)CO)C(=O)Cc2cc(NS(=O)(=O)c3ccc(F)cc3)ccc2O[C@@H]1CN(C)Cc1ccc(C(=O)Nc2ccccc2N)cc1 | 0.2
C[C@@H]1CN([C@@H](C)CO)C(=O)Cc2cc(NS(=O)(=O)c3ccccc3)ccc2O[C@@H]1CN(C)Cc1ccc2c(c1)OCO2 | -0.9
C[C@@H]1CN([C@H](C)CO)C(=O)c2cc(NC(=O)Cc3ccccc3)ccc2O[C@H]1CN(C)Cc1ccc(C(=O)Nc2ccccc2N)cc1 | 0.3
Cc1noc(C)c1NC(=O)Nc1ccc2c(c1)C(=O)N([C@@H](C)CO)C[C@H](C)[C@@H](CN(C)C(=O)C1CCCCC1)OCCCC[C@@H](C)O2 | 1.8
C[C@@H]1CCCCO[C@H](CN(C)S(=O)(=O)c2ccc(Cl)cc2)[C@@H](C)CN([C@@H](C)CO)C(=O)c2cc(NS(C)(=O)=O)ccc2O1 | -1.9
C[C@@H]1CCCCO[C@@H](CN(C)Cc2ccncc2)[C@H](C)CN([C@@H](C)CO)C(=O)c2cc(NC(=O)NC3CCCCC3)ccc2O1 | 1.2
C[C@H]1CN([C@@H](C)CO)C(=O)c2cccc(NC(=O)c3cnccn3)c2O[C@@H]1CN(C)CC1CC1 | 1.5
C=C(C)[C@@H]1CC=C(/C=N/NC(=O)c2cccc(C(=O)NO)c2)CC1 | -9.6
CC(C)NC(=O)Nc1ccc2c(c1)CC(=O)N([C@@H](C)CO)C[C@@H](C)[C@@H](CN(C)C)O2 | -0.8
C[C@@H]1CN([C@H](C)CO)C(=O)c2cccc(NC(=O)c3nc4ccccc4s3)c2O[C@H]1CN(C)Cc1ccc2c(c1)OCO2 | -1.7

Six of the compounds above, tab-delimited.
compound	A1 apoptosis 2
C[C@@H]1CN([C@H](C)CO)C(=O)Cc2cc(NS(=O)(=O)c3ccc(F)cc3)ccc2O[C@@H]1CN(C)Cc1ccc(C(=O)Nc2ccccc2N)cc1	0.2
C[C@@H]1CN([C@H](C)CO)C(=O)c2cc(NC(=O)Cc3ccccc3)ccc2O[C@H]1CN(C)Cc1ccc(C(=O)Nc2ccccc2N)cc1	0.3
CC(C)NC(=O)Nc1ccc2c(c1)CC(=O)N([C@@H](C)CO)C[C@@H](C)[C@@H](CN(C)C)O2	-0.8
C[C@@H]1CN([C@@H](C)CO)C(=O)Cc2cc(NS(=O)(=O)c3ccccc3)ccc2O[C@@H]1CN(C)Cc1ccc2c(c1)OCO2	-0.9
C[C@H]1CN([C@@H](C)CO)C(=O)c2cccc(NC(=O)c3cnccn3)c2O[C@@H]1CN(C)CC1CC1	1.5
Cc1noc(C)c1NC(=O)Nc1ccc2c(c1)C(=O)N([C@@H](C)CO)C[C@H](C)[C@@H](CN(C)C(=O)C1CCCCC1)OCCCC[C@@H](C)O2	1.8

Additional structures.
SMILES | A1 apoptosis 2
CNC[C@@H]1Oc2ccc(NC(=O)C3CC3)cc2CC(=O)N([C@@H](C)CO)C[C@@H]1C | -1.0
COC(=O)[C@]1(Cc2ccccc2)N=C(c2ccc(OCCCO)cc2)O[C@@H]1c1ccccc1N=[N+]=[N-] | 0.1
CCCN(C)C[C@@H]1OCCCC[C@H](C)Oc2ccc(NC(=O)CCC(F)(F)F)cc2C(=O)N([C@H](C)CO)C[C@@H]1C | -0.4
COc1ccc(S(=O)(=O)Nc2ccc3c(c2)C(=O)N([C@H](C)CO)C[C@H](C)[C@H](CN(C)C(=O)Nc2ccccc2)O3)cc1 | 0.3
C[C@@H]1CN([C@H](C)CO)C(=O)c2cccc(NC(=O)C3CCOCC3)c2O[C@@H]1CN(C)Cc1ccc(Cl)c(Cl)c1 | 0.2
C[C@@H]1CN([C@H](C)CO)C(=O)CCCn2cc(nn2)CO[C@@H]1CN(C)S(=O)(=O)c1cccc(F)c1 | 0.0
CC(C)NC(=O)Nc1ccc2c(c1)C(=O)N([C@H](C)CO)C[C@H](C)[C@@H](CN(C)Cc1ccncc1)OCCCC[C@@H](C)O2 | 0.9
C[C@@H]1CN([C@@H](C)CO)C(=O)c2cccc(NC(=O)c3nc4ccccc4s3)c2O[C@@H]1CN(C)C(=O)Nc1cccc2ccccc12 | 0.3
C[C@@H]1CN([C@@H](C)CO)C(=O)c2cccc(NC(=O)c3ccncc3)c2O[C@H]1CN(C)CC1CC1 | -1.8
COc1ccc(NC(=O)N(C)C[C@@H]2OCCCC[C@H](C)Oc3ccc(NS(C)(=O)=O)cc3C(=O)N([C@@H](C)CO)C[C@@H]2C)cc1 | 0.2
C[C@H]1CN([C@@H](C)CO)C(=O)c2cc(NC(=O)CCN3CCOCC3)ccc2O[C@@H]1CN(C)Cc1ccc(-c2ccccc2)cc1 | 0.5
C[C@@H]1CN([C@H](C)CO)C(=O)Cc2cc(NS(=O)(=O)c3ccc(Cl)cc3)ccc2O[C@@H]1CN(C)C(=O)NC1CCCCC1 | -1.1
CC(C)NC(=O)Nc1ccc2c(c1)C(=O)N([C@@H](C)CO)C[C@@H](C)[C@H](CN(C)Cc1ccncc1)O2 | 1.2
COc1ccc(S(=O)(=O)N(C)C[C@@H]2Oc3ccc(NC(=O)CCN4CCOCC4)cc3C(=O)N([C@H](C)CO)C[C@@H]2C)cc1 | -1.6
C[C@@H]1CCCCO[C@H](CN(C)Cc2ccc3c(c2)OCO3)[C@@H](C)CN([C@H](C)CO)C(=O)c2cc(NS(=O)(=O)c3cn(C)cn3)ccc2O1 | 1.2
C[C@@H]1CN([C@H](C)CO)C(=O)c2cccc(NC(=O)c3cnccn3)c2O[C@@H]1CN(C)Cc1ccc(Cl)c(Cl)c1 | 0.2
COc1ccc(-c2cnc3c(c2)C(=O)N([C@H](C)CO)C[C@H](C)[C@H](CN(C)C(=O)Nc2ccc(F)cc2)O3)cc1 | 0.1
COc1ccc(CN(C)C[C@H]2OCc3cn(nn3)CCCC(=O)N([C@H](C)CO)C[C@H]2C)cc1 | 0.5
CNC[C@H]1Oc2ccc(NC(=O)Nc3c(C)noc3C)cc2C(=O)N([C@@H](C)CO)C[C@H]1C | -0.6
COCCOC(=O)N1C(=O)[C@@]2(c3cc(C#CCNC(N)=O)ccc31)[C@H](C(N)=O)[C@H]1C(=O)O[C@H](c3ccccc3)[C@H](c3ccccc3)N1[C@@H]2c1ccccc1OCCO | 0.5
Cc1ccc(S(=O)(=O)N(C)C[C@@H]2Oc3c(NC(=O)C4CCOCC4)cccc3C(=O)N([C@@H](C)CO)C[C@@H]2C)cc1 | 0.7
COc1ccc(S(=O)(=O)N(C)C[C@H]2Oc3ccc(NS(=O)(=O)c4cn(C)cn4)cc3C(=O)N([C@H](C)CO)C[C@@H]2C)cc1 | -1.8
C[C@H](CO)N1C[C@H](C)[C@H](CN(C)C(=O)Nc2cccc3ccccc23)Oc2c(NS(=O)(=O)c3ccccc3)cccc2C1=O | -1.6
C[C@H](CO)N1C[C@H](C)[C@H](CN(C)CC2CCCCC2)Oc2ccc(NC(=O)Cc3ccccc3)cc2CC1=O | -0.1
C[C@@H]1CN([C@@H](C)CO)C(=O)Cc2cc(NS(=O)(=O)c3ccc(F)cc3)ccc2O[C@H]1CN(C)S(=O)(=O)c1ccc(Cl)cc1 | 0.0
C[C@H]1CN([C@@H](C)CO)C(=O)c2cc(N(C)C)ccc2O[C@@H]1CN(C)C(=O)Nc1ccc(F)cc1 | 1.6
Cc1noc(C)c1S(=O)(=O)Nc1ccc2c(c1)C(=O)N([C@H](C)CO)C[C@@H](C)[C@@H](CN(C)S(=O)(=O)c1ccccc1)O2 | 0.1
C[C@@H]1CN([C@@H](C)CO)C(=O)c2cc(NC(=O)Cc3cn(C)c4ccccc34)ccc2O[C@@H]1CN(C)C | -0.6
Cc1ccc(S(=O)(=O)N(C)C[C@@H]2Oc3ccc(NC(=O)CCCCCC(=O)Nc4ccccc4N)cc3C(=O)N([C@H](C)CO)C[C@H]2C)cc1 | 0.2
COc1ccc(S(=O)(=O)Nc2ccc3c(c2)C(=O)N([C@H](C)CO)C[C@@H](C)[C@H](CN(C)Cc2ccc(C(F)(F)F)cc2)OCCCC[C@H](C)O3)cc1 | 2.5
Cc1noc(C)c1NC(=O)Nc1ccc2c(c1)C(=O)N([C@H](C)CO)C[C@H](C)[C@@H](CN(C)C(=O)NC(C)C)OCCCC[C@H](C)O2 | -0.3
C[C@@H]1CN([C@@H](C)CO)C(=O)c2cccc(N(C)C)c2O[C@@H]1CN(C)S(=O)(=O)c1ccc(F)cc1 | -0.4
C[C@H]1CN([C@@H](C)CO)C(=O)c2cc(NC(=O)C3CC3)ccc2O[C@H]1CN(C)C(=O)NC1CCCCC1 | 0.4
C[C@H]1CCCCO[C@H](CN(C)S(=O)(=O)c2cn(C)cn2)[C@@H](C)CN([C@@H](C)CO)C(=O)c2cc(N(C)C)ccc2O1 | 0.8
C[C@@H]1CCCCO[C@H](CN(C)C(=O)Nc2cccc3ccccc23)[C@@H](C)CN([C@H](C)CO)C(=O)c2cc(NS(=O)(=O)c3ccc(F)cc3)ccc2O1 | 0.9
C[C@@H]1CN([C@H](C)CO)C(=O)c2cc(NC(=O)Nc3ccc4c(c3)OCO4)ccc2O[C@H]1CN(C)C | 0.0
C[C@@H]1CN([C@@H](C)CO)C(=O)c2cccc(NS(=O)(=O)c3ccc(Cl)cc3)c2O[C@@H]1CN(C)Cc1ccncc1 | -0.8
COc1ccc(CN(C)C[C@@H]2Oc3ccc(NC(=O)Cc4cn(C)c5ccccc45)cc3C(=O)N([C@H](C)CO)C[C@H]2C)cc1 | 0.7
C[C@H]1CN([C@@H](C)CO)C(=O)c2cc(NC(=O)NC3CCCCC3)ccc2O[C@@H]1CN(C)C(=O)Nc1ccccc1 | 1.1
C[C@H]1CCCCO[C@H](CN(C)C(=O)CCCN(C)C)[C@@H](C)CN([C@@H](C)CO)C(=O)c2cc(NS(=O)(=O)c3cccs3)ccc2O1 | 0.4
C[C@@H]1CN([C@@H](C)CO)C(=O)c2cc(NS(=O)(=O)c3ccc(F)cc3)ccc2O[C@@H](C)CCCCO[C@H]1CN(C)C(=O)CCCN(C)C | -0.7
